KCNQ2 enhance – potentiators of rat KCNQ2 potassium channel; actives 0.54% (n = 310,000); O88943; AID 2239; B-score at 10 µM; CHO-K1 KCNQ2, FluxOR thallium flux fluorescence; hits give high values;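 active = fluorescence ratio B-score at least 3 SD of library B-scores, with initial fluorescence B-score within 3 SD, cut at about 5.3 in these data; same plate scores as AID 2156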;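 note: B-score of peak minus minimum over baseline fluorescence ratio after K+ and Tl+ stimulus; positive B-score means potentiation of KCNQ2 with more thallium influx and brighter signal; only the inactives scoring about 0 or higher are listed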
Target sequence (O88943 whole entry, looked up): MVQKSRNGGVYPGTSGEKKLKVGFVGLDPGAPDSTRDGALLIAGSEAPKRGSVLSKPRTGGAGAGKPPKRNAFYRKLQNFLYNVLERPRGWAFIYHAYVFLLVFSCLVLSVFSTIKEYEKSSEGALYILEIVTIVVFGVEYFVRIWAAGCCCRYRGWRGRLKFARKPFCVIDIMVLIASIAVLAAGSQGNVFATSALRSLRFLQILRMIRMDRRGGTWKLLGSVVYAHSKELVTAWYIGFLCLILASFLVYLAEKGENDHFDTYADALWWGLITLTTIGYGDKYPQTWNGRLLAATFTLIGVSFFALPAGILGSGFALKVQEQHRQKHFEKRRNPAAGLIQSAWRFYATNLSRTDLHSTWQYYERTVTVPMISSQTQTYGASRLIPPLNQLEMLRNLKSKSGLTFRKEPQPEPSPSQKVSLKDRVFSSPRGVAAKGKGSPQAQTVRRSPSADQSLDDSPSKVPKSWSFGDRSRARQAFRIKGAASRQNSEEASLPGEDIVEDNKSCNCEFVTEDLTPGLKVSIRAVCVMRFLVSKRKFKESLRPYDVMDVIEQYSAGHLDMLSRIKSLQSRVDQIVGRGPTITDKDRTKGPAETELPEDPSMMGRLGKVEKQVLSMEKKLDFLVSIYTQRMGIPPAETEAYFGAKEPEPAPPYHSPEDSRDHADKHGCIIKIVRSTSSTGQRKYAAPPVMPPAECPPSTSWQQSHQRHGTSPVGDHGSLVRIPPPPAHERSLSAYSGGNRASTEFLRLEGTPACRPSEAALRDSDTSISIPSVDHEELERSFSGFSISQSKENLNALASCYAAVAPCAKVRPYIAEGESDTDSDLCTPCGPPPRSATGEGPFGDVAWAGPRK
KCNQ2 enhance baseline – further read-out of KCNQ2 enhance, marked with its call; B-score; compound at 10 µM; measured here: initial fluorescence intensity artifact check;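 brightness before thallium and not channel activity; 0 = typical well and far values either way flag optical interference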
Active calls of the source: *. A portion of the library (hit frequency here may not be typical).

SMILES	KCNQ2 enhance	KCNQ2 enhance baseline
COCC1CCN(Cc2cn[nH]c2-c2ccc(OC)c(F)c2)C1 (configuration not stated)	1.46	-1.03
CC(OC(=O)c1cccs1)C(=O)NCCc1ccccc1 (configuration not stated)	1.1	1.14
COCC1=C(C(=O)OC)C(c2ccco2)n2ncnc2N1 (configuration not stated)	0.09	-0.7
CCn1cc(C(=O)NC(=S)Nc2sc3c(c2C(=O)OC)CCCCCC3)cn1	3	-1.91
COCCNC(=O)CN(C)S(=O)(=O)c1ccc(Br)cc1	2.88	-0.69
Cc1c(NC(=O)CSc2ncn[nH]2)c(=O)n(-c2ccccc2)n1C	0.24	-0.58
CCOC(=O)CCc1c(C)c2ccc3c(c2oc1=O)CN(CCCO)CO3	0.61	-0.08
O=C(NCc1ccncc1)C(=O)Nc1nc(C23CC4CC(CC(C4)C2)C3)cs1	0.15	-0.43
CNC(=O)CSc1nc(-c2ccccc2)c(-c2ccccc2)o1	0.59	-0.08
Cc1ccc(OCC(=O)OCC(=O)Nc2sccc2C(N)=O)cc1C	1.53	-1.38
CN1CCN(C(=O)c2cnn3c(C(F)(F)F)cc(-c4ccc5c(c4)OCO5)nc23)CC1	0.58	-0.11
COC(=O)c1cc(-c2ccc(OC)cc2)nc2nc(SC)[nH]c(=O)c12	0.18	1
O=C(Nc1ccccc1)Nc1nnc(Cc2ccc(F)cc2)s1	0.82	-0.81
O=C(N/N=C/c1ccccc1O)C1CC(=O)N(c2ccc(Cl)cc2)C1 (configuration not stated)	0.07	-0.43
CC(=O)Nc1ccc(NC(=O)COc2ccc([N+](=O)[O-])cc2)cc1	0.35	2.41
COc1ccc(CNC(=O)CCc2nnc3ccc(NCCCN4CCCC4=O)nn23)cc1	2.32	-1.64
O=C(CSc1n[nH]c(-c2cccnc2)n1)Nc1cccc(Cl)c1	0.1	0.78
Cc1ccc(NC(=S)NCCc2ccccc2)nc1	0.35	2.95
Cc1ccc(CCN2CC(C(=O)NCCCN3CCN(C)CC3)CC2=O)cc1 (configuration not stated)	0.92	-0.6
COc1cccc(C2Oc3ccccc3C3CC(c4cccs4)=NN32)c1 (configuration not stated)	0.28	0
Cc1nc2nc(CSc3nc4ccccc4s3)cc(=O)n2[nH]1	0.09	1.55
Cc1cc(C)cc(NS(=O)(=O)c2c(C(=O)N3CCOCC3)c(C)n(C)c2C)c1	0.8	0.45
O=P(OCC1CC1)(c1ccccc1)c1ccccc1	0.11	-0.64
Nc1c(C(=O)NCCc2ccc(Cl)cc2)sc2ccc(S(=O)(=O)N3CCCCC3)cc12	0.12	-1.14
Cc1ccc(SCCC(=O)N(C)CC(=O)Nc2c(C)cccc2C)cc1	0.04	0.27
Cc1oc(-c2ccc(Cl)cc2)cc1C(=O)O	0.48	0.29
CC(=O)c1cccc(NC(=O)COc2nsnc2N2CCOCC2)c1	0.02	-1.31
NC(=O)[C@@H]1CCOc2c(F)cc([N+](=O)[O-])cc2C(=O)N[C@@H](CO)C(=O)NCC(=O)N1	0.88	0.01
CCCCc1nc2ccccc2n1CC(=O)NN	0.76	0.23
CCOC(=O)c1nnn(-c2nonc2N)c1-c1ccc(Br)cc1	0.36	-0.53
CCOC(=O)c1c(NC(=O)CN2CCOCC2)sc2c1CC(C)(C)OC2	0.32	0.05
CNCCCOc1ccc(C(C)(C)c2ccccc2)cc1	0.8	0.4
CC(C)C(=O)N1CCN(CCN2C(=O)c3cccc4cccc(c34)C2=O)CC1	0.6	1.67
COc1cccc2cc(-c3nnc(SCC(=O)NCCc4ccccc4)n3C)oc12	0.17	0.18
COc1ccc(CCNC(=O)C(CCC(N)=O)NS(=O)(=O)c2ccc(Cl)cc2)cc1OC (configuration not stated)	2.64	-0.91
COc1ccc(Cl)cc1C(=O)Nn1c(-c2cccs2)nc2ccccc2c1=O	0.19	-0.24
Cc1nn(-c2ccccc2)c(=O)c2noc(C)c12	0.87	0.99
CCOC(=O)[C@@H]1[C@H]2COc3cc(OC)ccc3[C@@H]2N2C(=O)N(c3ccc(C(F)(F)F)cc3)C(=O)[C@]12C	0.3	0.07
COCc1[nH][nH]c(=O)c1C=Nc1ccc(Oc2ccccc2)cc1	1.77	-0.11
C=CCn1c(SCC(=O)NCCc2ccccc2)nnc1C1CC1	0.1	-0.75
COc1ccc(NC(=O)Cn2c(=O)oc3ccccc32)cc1	1.72	-1.11
O=C1CCC(C(=O)OCC(=O)C23CC4CC(CC(C4)C2)C3)N1 (configuration not stated)	1.48	-0.03
CC1CCC(C(C)C)C(OC(=O)C[n+]2cccc(C(N)=O)c2)C1 (configuration not stated)	2.76	0.35
CC(=O)N1[C@H](C)C=C[C@]1(Cc1ccccc1)C(=O)NCCc1c[nH]c2ccccc12	0.12	1.1
COc1ccc(-c2c3c(=O)n(C)c(=O)n(C)c3cn2-c2ccccc2O)cc1	1.02	0.56
CCOc1ccc(CN2CCC(C(=O)N3CCN(c4ccccc4F)CC3)CC2)cc1OC	0.94	0.48
Cc1nnc2sc(-c3ccccn3)nn12	0.73	-0.6
CNc1ccc(/C=C2\COc3ccccc3C2=O)cc1[N+](=O)[O-]	0.12	0.05
O=C(NCc1ccco1)/C(=C/c1ccccc1)NC(=O)c1ccco1	1.7	-0.06
Cc1ccc(NC(=O)CCSc2nc(C)cc(C)n2)cc1	1.27	-0.41
Cc1c(-n2c(SCC(N)=O)nc3ccccc3c2=O)c(=O)n(-c2ccccc2)n1C	1.26	0.14
CC1=NN(CCC#N)C(=O)/C1=C/c1ccc(N(C)C)cc1	0.42	-1.63
CCCCCC(=O)Nc1ccc(-c2csc(N)n2)cc1	0.48	0.77
O=C(COC(=O)/C=C/C(=O)OCC(=O)NC12CC3CC(CC(C3)C1)C2)NC12CC3CC(CC(C3)C1)C2	0.38	-1.91
COc1ccc(OC)c(-n2c(C)cc(C=O)c2C)c1	1.38	5.02
CC(NC(=O)COC(=O)CCNC(=O)c1ccco1)C12CC3CC(CC(C3)C1)C2 (configuration not stated)	0.46	0.4
C/C(=N\NC(=O)c1ccc(C(=O)N/N=C(\C)c2ccco2)o1)c1ccco1	0.79	0.63
Cc1cc(=O)[nH]c(N/N=C2/CCCC/C2=C\c2ccccc2)n1	1.94	-1.34
CN1CCN(C(=O)c2cc3ccccc3[nH]2)CC1	0.64	-1.19
NC(=O)c1ccccc1NC(=O)COc1ccc(Cl)cc1	1.16	-1.01

Structures shown so far that have a Cl atom, in the order listed:
SMILES	KCNQ2 enhance	KCNQ2 enhance baseline
O=C(N/N=C/c1ccccc1O)C1CC(=O)N(c2ccc(Cl)cc2)C1 (configuration not stated)	0.07	-0.43
O=C(CSc1n[nH]c(-c2cccnc2)n1)Nc1cccc(Cl)c1	0.1	0.78
Nc1c(C(=O)NCCc2ccc(Cl)cc2)sc2ccc(S(=O)(=O)N3CCCCC3)cc12	0.12	-1.14
Cc1oc(-c2ccc(Cl)cc2)cc1C(=O)O	0.48	0.29
COc1ccc(CCNC(=O)C(CCC(N)=O)NS(=O)(=O)c2ccc(Cl)cc2)cc1OC (configuration not stated)	2.64	-0.91
COc1ccc(Cl)cc1C(=O)Nn1c(-c2cccs2)nc2ccccc2c1=O	0.19	-0.24
NC(=O)c1ccccc1NC(=O)COc1ccc(Cl)cc1	1.16	-1.01

Additional compounds
SMILES	KCNQ2 enhance	KCNQ2 enhance baseline
Cc1ccc(N2C(=O)N(CC(=O)Nc3ccc(C)cc3[N+](=O)[O-])C(=O)C2C)cc1 (configuration not stated)	0.01	0.99
O=c1cc(CN2CCN(Cc3ccc(F)cc3)C(CCO)C2)[nH]c2ccccc12 (configuration not stated)	0.23	-0.4
O=C1N(S(=O)(=O)c2ccccc2F)C(=O)C2(CCCC2)N1S(=O)(=O)c1ccccc1F	1.26	1.67
O=C(O)/C=C/C(=O)NCc1ccccc1	0.15	-0.34
Cc1ncc([N+](=O)[O-])n1CC(=O)Nc1ccccc1	1.98	-0.13
O=C(O)c1ccccc1OCc1ccccc1Br	0.67	1.74
Cc1cccc(NC(=O)COc2cccc3c2CCN(Cc2ccccc2)C3=O)c1C	0.67	-0.6
COc1cccc(/C=N/n2c(=S)n(C)c3ccccc32)c1OC	0.05	-1.06
CCOC(=O)Nc1ccc(N2CCOCC2)c(S(=O)(=O)N2CCOCC2)c1	0.66	-0.59
C=CCn1c(COc2ccccc2F)nnc1SCC(=O)c1c[nH]c2ccccc12	0.27	1.25
Cn1c(Cn2nnc3ccccc32)nnc1SCC(=O)N1c2ccccc2CCc2ccccc21	0.27	-0.2
COc1ccccc1C(=O)NCCC(=O)Nc1cccc(C)n1	0.34	-0.01
CC(C)(C)C(=O)CN1C2=NCCN2c2ccccc21	0.35	-1.49
CCC(C)c1ccccc1NC(=S)NC(=O)c1ccco1 (configuration not stated)	12.4*	-0.48*
COc1ccc(C2C3=C(CC(C)(C)CC3=O)N(C)C3=C2C(=O)CC(C)(C)C3)cc1OC	0.73	2.12
Fc1ccc(-n2nnc(-c3cccnc3Cl)n2)cc1	0.52	-2.4
CC(NC(=O)/C(=C\c1ccco1)NC(=O)c1ccccc1Br)C(=O)O (configuration not stated)	1.71	1.53
O=C1C(C=NCCCn2ccnc2)=C(O)c2ccccc21	1.62	2.09
CC(C)(C)NC(=O)Cn1nc(C(F)(F)F)c2c1CCCC2	1.46	0.39
O=C(CCCn1c(=O)c2ccccc2n(CC(=O)NCc2ccco2)c1=O)NCc1ccco1	0.41	-0.61
O=C(Nc1cccs1)Nc1cccnc1Cl	0.6	-0.08
COCCCNC(=O)CSc1nc2ccccc2c(=O)n1Cc1ccc2c(c1)OCO2	1.02	2.39
Cn1c(N2CCN(C(=O)Nc3ccc(C(F)(F)F)cc3)CC2)nc2ccccc21	0.29	-0.04
C/C(=N\NC(N)=S)C1(C)CC2(CC(C)(C)OC2=O)C(=O)O1 (configuration not stated)	0.11	0.06
Cc1ccccc1CS(=O)(=O)CCC(=O)NCCCN1CCN(c2ccccc2F)CC1	0.41	-2.07
CCCCn1c(=S)[nH]c2ccc(N3CCOCC3)cc2c1=O	0.59	0.21
O=C(Nc1cc2cccc([N+](=O)[O-])c2oc1=O)c1cccs1	2.13	0.08
COc1cc2cc(CN(CCN3CCOCC3)C(=O)Nc3ccc(F)cc3)c(=O)[nH]c2cc1OC	0.78	-0.64
O=C(NCCN1CCOCC1)c1cc(-c2ccc(Cl)s2)nc2ccccc12	0.03	0.04
O=C(Nc1ccncc1)c1ccc(N2CCCC2=O)cc1	1.16	-0.2
COc1cccc(Nc2nc3cc(OC)ccc3cc2C#N)c1	0.56	-1.25
COc1ccccc1NC(=O)N(Cc1ccc2c(c1)OCO2)Cc1nc2ccccc2c(=O)[nH]1	0.02	-0.12
Fc1ccc(NC(=S)N2CCN(c3cccc(C(F)(F)F)c3)CC2)cc1	1.56	0.09
CCC(C)NC(=O)/C=C1\Sc2ccccc2NC1=O (configuration not stated)	0.09	1.21
CCn1c(SCC(=O)Nc2ccc(C(=O)OC)cc2)nnc1-c1cccs1	0.42	0.73
CC(C)CC(=O)N(Cc1ccc(F)cc1)C1CCS(=O)(=O)C1 (configuration not stated)	1.32	1.3
CCOc1cc(C)c(C(C)C)cc1S(=O)(=O)NCc1ccccn1	1.74	0.32
CCOC(=O)Nc1ccc(OC)cc1S(=O)(=O)N1CCCCC1	0.23	0.33
CCOC(=O)Cn1cnc2c(cnn2-c2ccccc2)c1=O	1.64	0.73
COc1ccc(Br)cc1CNc1ccc2[nH]c(=O)[nH]c2c1	1.49	0.66
CC1(C)Cc2c(sc(/N=C/N3CCCCCC3)c2C#N)C(C)(C)N1	1.78	-1.72
COc1ccc(CCNC(=O)CCc2ccc(S(=O)(=O)NCC(C)C)cc2)cc1OC	0.52	1.03
COc1cccc(OCc2cc(C(=O)NCc3cnc4ccccn34)no2)c1	0.75	0.41
CN(c1ccccc1)c1nc(N)c([N+](=O)[O-])c(NCc2ccco2)n1	0.06	-0.99
Cc1noc(C)c1S(=O)(=O)N1CCCC(C(=O)c2cccc(OC(C)C)c2)C1 (configuration not stated)	0.43	-0.99

Entries from the list above that contain a tert-butyl group, in the order listed:
SMILES	KCNQ2 enhance	KCNQ2 enhance baseline
CC(C)(C)C(=O)CN1C2=NCCN2c2ccccc21	0.35	-1.49
CC(C)(C)NC(=O)Cn1nc(C(F)(F)F)c2c1CCCC2	1.46	0.39

The list continues.
SMILES	KCNQ2 enhance	KCNQ2 enhance baseline
O=C(CN1CCCCCC1)Nc1ccc(F)c(F)c1F	0.74	-0.86
O=C(NCCS(=O)(=O)N1CCN(c2cccc(Cl)c2)CC1)C1CC1	0.55	0
CC(=O)CCS(=O)(=O)c1ccc(Oc2ccc(S(=O)(=O)CCC(C)=O)cc2)cc1	1	0.55
CCn1cc(CNC(=O)c2cc(COc3ccc(F)cc3Cl)on2)cn1	2.97	-0.63
CC(C)C(=O)Nc1ccc(C(=O)NNC(=O)NC2CCCCC2)cc1	1.3	-0.02
CC(=O)c1ccc(N2CCN(C(=O)c3cc(-c4ccncc4)nc4ccc(Br)cc34)CC2)cc1	0.68	1.53
Cc1[nH]c(=O)c(C#N)c(C)c1CCC(=O)NCc1ccc(Cl)cc1	0.34	0.25
C[C@@]12CCC3[C@@](CC[C@@H]4[C@](C)(C(=O)O)CCC[C@@]34C)(C[C@H]1O)C2 (some centres not stated)	0.27	-2.18
FC(F)(F)c1cccc(CN2CCCCCC2)c1	0.11	0.98
O=C(CCC(=O)N1CCN(S(=O)(=O)c2cccc(F)c2)CC1)c1cccs1	0.83	0.1
Cc1ccnc(SCC(=O)N2CCC(C(N)=O)CC2)n1	0.84	0.31
CC1CCN(C(=O)CSCC(=O)O)CC1	1.21	1.55
CC1CCN(S(=O)(=O)c2cc3c4c(c2)CCN4C(=O)CC3)CC1	0.84	0.1
CC(=O)Nc1ccc(NC(=O)C2CCCN2C(=O)NC2CCCCC2)cc1 (configuration not stated)	1.28	1.18
Oc1ccc2ccccc2c1C=NC1CCCCC1	4.2	2.55

High-throughput results: PubChem, Johns Hopkins Ion Channel Center
